# Source: PubChem BioAssay
# NS1 inh: inhibitors of influenza NS1 protein function. S. cerevisiae slowed by influenza A NS1, growth recovery by OD600. Potency, µM (doses to about 46.1 µM), without a hit: top-dose activity, positive = more growth. 270,000 tested, 0.4% active; note: actives are rising curves; nearly all actives have a fitted effect of over 50% in size
#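 S. cerevisiae expressing influenza A NS1, grown in glucose, washed, then diluted 1:100 into pH 6.0 -URA galactose medium with 23 nl compound. Growth recovery read as OD600; NS1-free strain serves as control.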
# LASV entry inh: blocks Lassa virus binding to or entry into cells | Lassa virus pseudotype entry inhibition, cell reporter; control for the full effect not named in the record | Potency, µM (series often up to 37.9 µM), inactives show top-dose activity change, negative = inhibition, actives largely listed as inhibitors | 300,000 tested, 1.2% active | AID 540256; active means well fitted inhibition curve with a large enough effect; inconclusive means small, poorly fitted or top-dose-only effect, or effect the other way; inactive means flat fitted curve, though single readings scatter; tested in HEK293 cells; note: % is set by controls: 0 for no effect and ±100 for the full control effect; nearly all actives have a fitted effect of over 50% in size; luciferase read-out
# Cruzain inh Det: inhibitors of Trypanosoma cruzi cruzain with detergent; Potency, µM, inactives show max response, negative = inhibition, most hits filed as inhibitors; P25779; purified cruzain, Z-FR-AMC fluorescence, 0.01% Triton; 200,000 tested, 0.43% active; active = well fitted curve in the direction sought with a large enough effect; inconclusive = small, poorly fitted or top-dose-only effect, or another doubt; inactive = no such curve, though single readings can be large; an effect the other way counts as inactive or inconclusive;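 note: plate controls were neutral wells for no effect and buffer without enzyme for full effect; nearly all actives have a fitted effect of over 40% in size; top concentration of the series not given in the record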
# Target sequence (P25779 123-467 limits assumed): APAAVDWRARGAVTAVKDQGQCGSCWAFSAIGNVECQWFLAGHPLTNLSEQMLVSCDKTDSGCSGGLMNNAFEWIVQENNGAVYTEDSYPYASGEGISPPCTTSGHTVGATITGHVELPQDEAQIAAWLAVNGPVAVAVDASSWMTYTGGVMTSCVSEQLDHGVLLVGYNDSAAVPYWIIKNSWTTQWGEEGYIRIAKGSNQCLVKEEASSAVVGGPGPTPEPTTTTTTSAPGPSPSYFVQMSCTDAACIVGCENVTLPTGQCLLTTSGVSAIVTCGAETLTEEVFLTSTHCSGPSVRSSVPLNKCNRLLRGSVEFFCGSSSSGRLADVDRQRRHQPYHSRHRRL
#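 Cruzain (1.5 nM) preincubated 15 min at RT with compound in 100 mM sodium acetate pH 5.5, 5 mM DTT, 0.01% Triton X-100. Reaction started with 2 uM Z-FR-AMC; AMC fluorescence (ex 360/em 450 nm) change over 60 s gave rate.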
# StopGo reporter: FMDV 2A StopGo reporter, luciferase signal | human cells with a luciferase reporter of 2A StopGo recoding; control for the full effect not named in the record | Potency, µM (highest dose often 57.9 µM), for the others: top-dose signal change, negative = less light | 410,000 tested, 1.2% active | AID 1159524; active = well fitted falling curve with a large enough effect; inconclusive = small, poorly fitted or top-dose-only effect; inactive = no such curve, though single readings can be large or run the other way; tested in HEK293T cells; note: % is set by controls: 0 for no effect and ±100 for the full control effect; nearly all actives have a fitted effect of over 45% in size; luciferase light after 4 h
# SARS PLpro yeast: inhibitors of SARS-CoV papain-like protease in yeast. S. cerevisiae expressing SARS-CoV PLpro, growth rescue; control for the full effect not named in the record. Potency, µM (series often up to 32.9 µM), without a hit: at the highest dose activity, positive = growth rescue. 330,000 tested, 0.19% active; note: 0% is about no effect; nearly all actives have a fitted effect of over 55% in size; growth read by luminescence after 48 h
# Cruzain inh noDet: cruzain (T. cruzi) inhibition without detergent | AID 1476 | 200,000 tested, 2.3% active | Potency, µM, inactives show max response, negative = inhibition, most hits filed as inhibitors | purified cruzain, Z-FR-AMC fluorescence, no detergent; active = well fitted curve in the direction sought with a large enough effect; inconclusive = small, poorly fitted or top-dose-only effect, or another doubt; inactive = no such curve, though single readings can be large; an effect the other way counts as inactive or inconclusive;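 note: plate controls were enzyme without inhibitor for no effect and buffer without enzyme for full effect; nearly all actives have a fitted effect of over 40% in size; top concentration of the series not given in the record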
#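 Purified cruzain at 1.5 nM, pre-incubated 15 min with compound at room temperature in 100 mM sodium acetate pH 5.5, 5 mM DTT, 0.00005% Triton X-100. Reaction started with 2 uM Z-FR-AMC; AMC fluorescence increase over 60 s gives rate.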
# MARV entry inh: blocks Marburg virus binding to or entry into cells; Marburg virus pseudotyped entry inhibition, cell reporter; control for the full effect not named in the record; about a third of the inactives were read at about 46 µM; AID 540276; Potency, µM (highest dose often 37.8 µM), inactives show top-dose activity change, negative = inhibition, hits mostly inhibitors; 300,000 tested, 1.8% active; active = well fitted inhibition curve with a large enough effect; inconclusive = small, poorly fitted or top-dose-only effect, or effect the other way; inactive = flat fitted curve, though single readings scatter; tested in HEK293 cells; about a fifth of its hits are not listed in these tables; note: % is set by controls: 0 for no effect and ±100 for the full control effect; luciferase read-out
# RE007 growth inh: less growth of the S. pombe RE007 Vpr strain | 360,000 tested, 0.21% active | Potency, µM (doses to about 92.2 µM), inactives show top-dose activity change, negative = less growth | S. pombe RE007 Vpr strain, BacTiter-Glo ATP luminescence, 24 h; control for the full effect not named in the record; active = well fitted falling curve with a large enough effect; inconclusive = small, poorly fitted or top-dose-only effect; inactive = no such curve, though single readings can be large or run the other way;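 note: % is set by controls: 0 for no effect and ±100 for the full control effect; nearly all actives have a fitted effect of over 50% in size; the assay follows cell death caused by Vpr and the record does not say whether a fall means rescue or toxicity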
#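 Fission yeast RE007 carrying one integrated HIV-1 vpr copy, seeded at OD 0.01 in PMG+AL medium with 23 nL pinned compound. Grown 24 h at 30 degrees; viability read by BacTiter-Glo luminescence after 5 min.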
# * hit, by the source's call; ? = inconclusive; · = no result given; & = joins results of further samples; [ ] = another dose, or the depositor's remark. Unless noted, calls come from the whole dose curve; as a rule, active means well fitted rising curve with a large enough effect; inconclusive means small, poorly fitted or top-dose-only effect; inactive means no such curve, though single readings can be large or run the other way. Potency is the fitted concentration of half-maximal effect.
SMILES,NS1 inh,LASV entry inh,Cruzain inh Det,StopGo reporter,SARS PLpro yeast,Cruzain inh noDet,MARV entry inh,RE007 growth inh
CCCCCc1cc(=O)oc2c(C(CCN3CCCCC3)c3ccc(OC)cc3)c(OC)cc(OC)c12 (stereo not given),7%,·,·,-11%,-1%,·,·,-3%
O=c1c2ccccc2nc(-c2ccccc2Cl)n1O,·,19%,·,-12%,12%,·,10%[46.1 µM],11%
Cc1ccc(NC(=O)C2CCN(C(=O)c3cnn(-c4ccccc4)c3-n3cccc3)CC2)cc1,·,-6%[46.1 µM],-3.8%,-1%,·,?,?,·
CC1(C)Nc2ccc(O)cc2-c2c1ssc2=S,-11%,?,-8.9%,?,8%,?,16%,-15%
CCOC(=O)C1CCN(C(=O)C2CCN(S(=O)(=O)c3c(C)noc3C)CC2)CC1,-6%,-2%,2.5%,2%,1%,-7%,4%[46.1 µM],1%
O=C(CCCN1C(=O)c2ccccc2C1=O)NC1CCCCCC1,-4%,-4%,-0.3%,-18%,1%,2%,-21%,-2%
NNC(=O)C(=O)Nc1ccc(O)cc1,2%,·,·,-12%,0%,·,·,10%
COc1cccc(/C=C/C(=O)N2CC(C)OC(C)C2)c1OC (stereo not given),-7%,-1%[46.1 µM],·,3%,10%,·,7%[46.1 µM],8%
CCOc1ccc(Br)cc1S(=O)(=O)NC1=NCCCCC1,·,14%,·,21%,0%,·,?,6%
O=C(NCCN1CCOCC1)c1cccnc1SCc1ccccc1Cl,·,2%[46.1 µM],·,-10%,-2%,·,?,11%
O=C1CC(c2ccccc2)CC(O)=C1C=NCCCN1CCOCC1 (stereo not given),-8%,19%,-0.4%,·,11%,-11%,-11%,-6%
CCOC(=O)c1cccc(NC(=O)c2cc3c(-c4cccc(OC)c4)nn(C)c3s2)c1,·,?,-2.3%,?,·,-14%,?,·
Cc1nn(CC2CC2)c(=O)n1-c1ccc(F)cc1,·,-5%,·,-1%,9%,·,-5%[46.1 µM],-14%
CC(=O)Nc1ccc(N/C=C2/CCCC2=O)cc1,-5%,18%[46.1 µM],·,18%,0%,·,?,-30%
O=C(CSc1nc(-c2cccs2)cc(C(F)(F)F)n1)Nc1cc(OCC(F)(F)F)cc([N+](=O)[O-])c1,7%,?,-1.0%,?,-1%,-28%,7.1µM*,24%
Cc1cc(C(=O)N/N=C/c2cc(Cl)cc([N+](=O)[O-])c2O)n[nH]1,-46%,-5%[46.1 µM],·,-4%,0%,·,?,3%
O=C(CCN1C(=O)/C(=C\c2ccccc2)SC1=S)N1CCCCC1,-6%,0%,·,10%,2%,·,3%[46.1 µM],-14%
O=C(Nc1ccc(Cl)cc1)Nc1ccc(N2CCC(C(F)(F)F)CC2)nc1,-3%,9%,·,2%,1%,·,7%[46.1 µM],0%
COc1ccccc1N1CCN(c2cc(C)nc3nc(-c4ccc(C)cc4)nn23)CC1,·,4%[46.1 µM],0.8%,3%,·,-7%,24%[46.1 µM],·
O=C(OCc1nc2ccccc2s1)[C@@H]1CCCN1S(=O)(=O)c1ccccc1F,-171%,·,-4.1%,·,-25%,13%,-5%,·
CN1C(=O)COc2ccc(C(=O)c3oc4ccccc4c3-c3cnc4c(c3)COc3ccccc3-4)cc21,13%,·,-0.3%,·,10%,?,·,·
FC(F)(F)c1cccc(-n2cc(-c3ccccc3)c3c(N4CCCCC4)ncnc32)c1,·,-3%[46.1 µM],0.1%,?,·,7%,·,·
O=C(COC(=O)c1ccco1)NCC1CCCCC1,·,0%,·,-6%,9%,·,2%[46.1 µM],-3%
Cc1occc1C(=O)Nc1cccc(C(=O)NCc2ccccc2)c1,-24%,?,2.8%,31%[activator],-1%,12%,?,-3%
Cc1ccc(/C(O)=C/c2nc3cc(C)ccc3oc2=O)cc1,-2%,10%,·,1%,0%,·,4%[14.2 µM],-8%
COc1cc2c(cc1OC)-c1nnc(-c3cccs3)n1C1(CCCC1)C2,11%,-13%,-3.3%,0%,0%,0%,-8%,-5%
Cc1ccc(S(=O)(=O)NCCNC(=O)CN2CCOCC2)cc1,7%,·,·,34%[activator],1%,·,3%[46.1 µM],5%
CCCc1cc(=O)n2[nH]c(C)nc2n1,-3%,-1%,-3.5%,-16%,1%,-3%,-2%,-1%
COCCCn1c2nc3ccccc3nc2c2c(=O)n(-c3ccccc3OC)cnc21,-9%,7%,-3.6%,0%,3%,?,10%,11%
CCN(CC)S(=O)(=O)c1ccc(NC(=O)c2ccccc2N(C)S(C)(=O)=O)cc1,-4%,-9%,4.4%,9%,-6%,5%,0%,-2%
Cc1csc(N/N=C/c2c(F)cccc2Cl)n1,-8%,8%,·,45%[activator],-6%,·,15%,-5%
Oc1ccc(C23CC4CC(CC(C4)C2)C3)cc1O,-63%,·,·,-21%,-8%,·,·,?
CCCCc1n(CC(=O)c2ccc(Cl)cc2)c2ccccc2[n+]1C,·,?,·,-15%,·,·,?,-29%
O=C(CN1C(=O)CCSc2ccccc21)Nc1ccccc1,-8%,5%,1.0%,-7%,-1%,-4%,-26%,0%
N/C(=N\O)c1ccccc1-n1cccc1,·,2%[46.1 µM],·,?,2%,·,?,-12%
CC(=O)Nc1ccc2c(c1Br)Cc1ccccc1-2,·,19%,·,51%[activator],·,·,?,-18%
CCNc1nc(NCC)nc(OCCNS(=O)(=O)c2cc(C)ccc2C)n1,-1%,-5%,5.4%,8%,8%,-3%,1%,12%
O=C(NC[P+](=O)O)OCc1ccccc1,-1%,16%,1.4%,-22%,1%,5%,0%,-4%
CC1CCC(NC(=O)CCCn2sc3ccccc3c2=O)CC1 (stereo not given),-10%,·,·,0%,-15%,·,·,7%
COc1cc(OC)c(C(=O)Nc2cccc3ccccc23)cc1OC,7%,·,·,33%[activator],-3%,·,·,2%
CCOc1ccccc1CNC(=O)c1cn(-c2ccc(OC)cc2)c(=O)c2ccccc12,·,?,-8.0%,-10%,·,-12%,·,·
CN1CCN(c2ccc(S(=O)(=O)N3CCCCC3)cn2)CC1,-3%,9%,4.2%,-10%,6%,7%,0%,4%
Cc1ccc(-c2nn(-c3ccccc3)cc2C(=O)NN2CCN(C)CC2)cc1,2%,-17%,·,-3%,2%,·,?,-24%
O=[N+]([O-])c1ccc(C(c2sc3nc(-c4ccco4)nn3c2O)N2CCC3(CC2)OCCO3)cc1 (stereo not given),·,6%[46.1 µM],-5.2%,7%,·,21%,·,·
CCCCn1c(SCC(=O)N2CC(=O)Nc3ccccc32)nnc1-c1ccoc1C,2%,9%,3.2%,-5%,0%,2%,-2%&-8%,13%
COc1cccc(Oc2cn[nH]c2-c2ccc(O)cc2O)c1,-53%,7%,3.2%,·,-2%,-1%,?,9%
Cc1ccc(S(=O)(=O)NC(=O)c2ccccc2C)cc1,-8%,·,·,-20%,1%,·,·,-2%
Cc1coc2c(C)c3oc(=O)c(CCC(=O)N[C@@H](C)C(=O)N[C@@H](Cc4ccccc4)C(=O)O)c(C)c3cc12,18%,·,·,-7%,9%,·,·,-7%
O=C(COc1ccccc1)Nc1nn[nH]n1,-2%,-9%,11%,-11%,0%,2%,9%[46.1 µM],-14%
O=S(=O)(c1ccccc1)N1CCC(c2ccncc2)CC1,·,26%[46.1 µM],3.0%,?,·,12%,·,·
O=c1[nH]c(C2CCN(S(=O)(=O)c3cccc(C(F)(F)F)c3)CC2)nc2c1nnn2Cc1cccc(F)c1,22%,?,·,?,0%,·,?,1%
Cc1nn(Cc2c(F)c(F)c(F)c(F)c2F)c(C)c1NC(=O)c1ccc(COc2cc(Cl)ccc2Cl)cc1,12%,-22%,4.4%,4%,-8%,-58%,-6%,-13%
CCCn1nc(NS(C)(=O)=O)c2cc3cccc(C)c3nc21,-60%,13%,-10%,9%,2%,15%,0%,-6%
CC(NC(=O)c1ccc2c(c1)CCN2S(=O)(=O)c1ccccc1)c1ccccc1 (stereo not given),·,?,-2.6%,15%,·,-4%,-13%[46.1 µM],·
Cc1ccc(C)c(S(=O)(=O)Nc2cccc(-n3cnnn3)c2)c1,2%,·,·,40%[activator],6%,·,·,3%
O=C(CCc1nc2ccccc2c(=O)[nH]1)N1CCN(S(=O)(=O)c2cccc([N+](=O)[O-])c2)CC1,·,19%,·,-28%,-6%,·,0%[46.1 µM],0%
COc1ccc(/C(O)=C2/C(=O)C(=O)N(CCN(C)C)C2c2cccnc2)cc1OC (stereo not given),·,8%,·,-9%,1%,·,7%[46.1 µM],3%
COc1ccc(-n2c(Cn3nnc4ccccc43)n[nH]c2=S)cc1,22%,4%,-0.5%,-16%,24%,22%,-15%,22%
CC(=O)N/C(N)=N/c1nc(=O)c2ccccc2s1,-1%,·,·,49%[activator],1%,·,·,0%
COc1cccc(C(CC(=O)NCCN2CCOCC2)NS(=O)(=O)c2ccc(C)cc2)c1OC (stereo not given),-5%,4%,2.1%,-27%,2%,9%,29%,28%
# (continued)
SMILES,NS1 inh,LASV entry inh,Cruzain inh Det,StopGo reporter,SARS PLpro yeast,Cruzain inh noDet,MARV entry inh,RE007 growth inh
CC(C)NC(=O)NC(=O)COC(=O)c1ccccc1Oc1ccccc1,-1%,?,-14%,-11%,-7%,-7%,11µM*,6%
O=C(C1CC(c2ccc(F)cc2)=NO1)N1CCCc2ccccc21 (stereo not given),-8%,-7%,0.2%,-19%,-3%,6%,?,-4%
Cc1cc(NC(=O)CSc2nnc(-c3ccccc3F)n2N)no1,·,?,·,-18%,9%,·,15%,-7%
O=C(CSCSCC(=O)NCC1CCCO1)NCC1CCCO1 (stereo not given),-10%,16%,4.1%,-20%,0%,-5%,0%,13%
CCCCNCCCOc1cccc(Cl)c1,-1%,?,4.8%,-9%,7%,-3%,?,-6%
CC(=O)c1nnn(-c2ccc(Cl)cc2C#N)c1C,3%,-3%,·,1%,1%,·,0%[46.1 µM],14%
COc1cc(Br)c(C(C)NC(=O)c2ccccc2)cc1OC (stereo not given),-15%,17%,0.3%,0%,1%,-6%,-21%,21%

# Outcome played no part in choosing rows; any-hit rate near 4.7%.
